Compound activity from PubChem BioAssay.
Mtb bLac sens: beta-lactam sensitization of Mtb H37Rv | M. tuberculosis H37Rv growth with meropenem, percent inhibition; hits of this screen are not shown here | inhibition, % at 25 µM | hit rate 0.27% among 330,000 | AID 434955;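 active = about 74% or more and at least 40 points above the plate without the antibiotic, then above 30% in a dose series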;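 also: growth measured after seven days incubation then overnight dye step; 0% = bacteria only wells and 100% = bacteria with antibiotic; twin plates without the antibiotic show which effects depend on it; some results filed as inactive read as strong as hits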
Mtb growth: M. tuberculosis H37Rv growth inhibitors, H37Rv strain (AID 1626). M. tuberculosis H37Rv growth inhibition; higher % means a stronger effect. inhibition, % at 10 µM; hits with a dose series show IC50 in µM. hit rate 0.95% among 220,000;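 active = confirmed in a dose series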;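 also: bacteria incubated seven days before Alamar blue readout; 0% = bacteria only wells and 100% = bacteria with antibiotic wells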
Arbovirus inh: blocks arbovirus infection; hit rate 0.37% among 200,000; inhibition, % at 10 µM; arbovirus infection cell-based antiviral screen; AID 1251;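 active = inhibition from about 30%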;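 also: bluetongue infection of BSR cells; cell survival read as ATP light after 72 h; 0% = infected wells without compound and 100% = uninfected wells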
YopH PTP inh: blocks Yersinia enterocolitica YopH tyrosine phosphatase. fluorescence Ex485/Em525. inhibition, %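 (about 10 µM by stock and volumes)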. hit rate 0.16% among 140,000. AID 898;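 active = inhibition of 50% or more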;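 also: controls were vehicle for no effect and minimum signal wells for full effect; inactives centre near -20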
RecA intein inh: blocks M. tuberculosis RecA intein splicing | P9WHJ3 | cell-free RecA intein splicing, fluorescence | inhibition, %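 (about 9 µM by stock and volumes)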 | hit rate 0.75% among 290,000 | AID 2221; in the data active = inhibition above about 30%;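 also: 0% = vehicle wells and 100% = reference inhibitor control wells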
Target sequence (P9WHJ3 whole entry, looked up): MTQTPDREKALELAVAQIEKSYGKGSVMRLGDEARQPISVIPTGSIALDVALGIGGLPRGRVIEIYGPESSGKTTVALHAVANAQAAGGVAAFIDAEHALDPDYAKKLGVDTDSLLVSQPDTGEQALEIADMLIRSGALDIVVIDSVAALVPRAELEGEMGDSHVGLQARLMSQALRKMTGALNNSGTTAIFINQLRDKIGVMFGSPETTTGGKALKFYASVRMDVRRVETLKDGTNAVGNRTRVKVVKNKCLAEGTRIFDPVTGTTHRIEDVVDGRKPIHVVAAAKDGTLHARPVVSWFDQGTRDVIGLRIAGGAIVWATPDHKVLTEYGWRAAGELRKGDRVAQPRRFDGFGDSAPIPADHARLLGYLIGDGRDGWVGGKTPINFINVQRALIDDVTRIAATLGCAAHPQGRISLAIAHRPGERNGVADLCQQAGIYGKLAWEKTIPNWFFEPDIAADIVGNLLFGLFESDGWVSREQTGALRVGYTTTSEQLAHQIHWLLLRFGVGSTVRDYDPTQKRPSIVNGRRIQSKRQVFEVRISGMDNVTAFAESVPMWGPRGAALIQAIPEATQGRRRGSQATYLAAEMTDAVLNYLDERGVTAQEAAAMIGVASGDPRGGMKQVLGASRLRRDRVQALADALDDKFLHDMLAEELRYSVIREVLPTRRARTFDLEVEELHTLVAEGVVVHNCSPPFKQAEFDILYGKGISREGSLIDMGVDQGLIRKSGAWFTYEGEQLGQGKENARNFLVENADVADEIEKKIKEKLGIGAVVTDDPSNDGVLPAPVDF
Arbovirus inh repeat: second read-out of Arbovirus inh, no call of its own (marks repeat the call); inhibition, %; measured here: 10K subset replicate screen; many hits read low in the repeat;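 first of two repeat runs on a subset; 0% = infected and 100% = uninfected wells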
* hit, by the source's call; nt = not tested or not shown.

SMILES | Mtb bLac sens | Mtb growth | Arbovirus inh | YopH PTP inh | RecA intein inh | others
O=C(NCc1ccc2c(c1)OCO2)C1CCC(CNc2c(N3CCCC3)c(=O)c2=O)CC1 (stereo not drawn) | -1 | nt | 5 | -22 | -0.7 | Arbovirus inh repeat=-1
CCn1c(SCC(=O)Nc2ccccc2)nc2ccccc2c1=O | 5 | nt | nt | nt | -0.3
Cc1ccc(-n2nc(C)c3c2OC(N)=C(C#N)C3c2ccncc2)cc1 (stereo not drawn) | -7 | -1% | 0 | -51 | nt
S=C(NCCNCc1ccccc1)NC1CCCCC1 | -2 | 4% | -22 | nt | 3.2
O=C(CCN1c2ccccc2Sc2ccccc21)Oc1ccccc1 | nt | 23% | 5 | -18 | 7.2
C/C(N)=C(/C#N)C(=O)COC(=O)c1cc(-c2cccc(Br)c2)nc2ccccc12 | 8 | 58% | -33 | -16 | 2.2
C=CCC(NCc1ccccc1)c1ccccc1 (stereo not drawn) | 10 | 4% | 5 | -33 | -0.1
Cc1ccc(Nc2nc3c(s2)CCC3)c(C)c1 | 73 | 2% | 6 | 1 | 7.3
Cc1nnc(C)n1/N=C/c1ccc2c(c1)OCCO2 | -6 | -4% | -3 | -7 | -1.3
O=C(CSc1nc2ccc(Cl)cc2[nH]1)c1ccc2c(c1)OCO2 | 5 | 65% | -2 | 0 | 2.1
Cn1cccc1C(=O)NNC(=O)c1ccccc1Br | -13 | nt | nt | nt | 0.6
O=C(NCc1ccco1)c1ccc([N+](=O)[O-])o1 | 100 | 19% | 1 | nt | -8.3
CN(C)CCNC(=O)Cn1ccc2cc(S(=O)(=O)N3CCCCCC3)ccc21 | -6 | nt | nt | nt | -0.6
Cc1noc(N)c1C(=O)Nc1ccccc1F | -6 | -8% | 5 | -4 | -4.7
O=[N+]([O-])c1ccc(N2CCN(S(=O)(=O)c3ccccc3)CC2)cc1 | -3 | nt | nt | nt | -1.4

A run of entries from the list above:
SMILES | Mtb bLac sens | Mtb growth | Arbovirus inh | YopH PTP inh | RecA intein inh | others
Cc1ccc(Nc2nc3c(s2)CCC3)c(C)c1 | 73 | 2% | 6 | 1 | 7.3
Cc1nnc(C)n1/N=C/c1ccc2c(c1)OCCO2 | -6 | -4% | -3 | -7 | -1.3
O=C(CSc1nc2ccc(Cl)cc2[nH]1)c1ccc2c(c1)OCO2 | 5 | 65% | -2 | 0 | 2.1

Further results follow:
SMILES | Mtb bLac sens | Mtb growth | Arbovirus inh | YopH PTP inh | RecA intein inh | others
CCOC(=O)C1CCN(S(=O)(=O)c2ccc3c(c2)CCCN3C(C)=O)CC1 | -9 | 2% | 7 | nt | 1.7
Cc1cc(C)c2c(N)c(C(=O)c3ccc(Cl)cc3Cl)sc2n1 | 2 | 8% | -14 | -29 | -6.4
COc1ccc(CCNC(=O)c2cc(-c3cc(Cl)ccc3O)n[nH]2)cc1OC | -3 | -11% | nt | nt | -2.9
CC(C)(C)CN1CCN(Cc2cccnc2)CC1CCO (stereo not drawn) | -5 | nt | nt | nt | -0.1
Oc1ccc(Br)cc1-c1cc(-c2ccccc2)n[nH]1 | 88 | 17% | 36* | -11 | 15
O=c1cc(-c2ccccc2)cc(-c2ccccc2)n1O | 55 | nt | nt | nt | 5.4
COc1ccc(F)cc1C(=O)C1CCCN(C(=O)CCc2ccccn2)C1 (stereo not drawn) | -3 | 1% | 4 | nt | 1.6
O/N=C/c1c[nH]c2ccccc12 | 64 | 58% | -1 | -27 | -2.6 | Arbovirus inh repeat=-3
COc1ccc(NC(=O)C(=O)NCC(c2ccco2)N2CCc3ccccc32)cc1 (stereo not drawn) | 4 | nt | nt | nt | -0.2
CCC(C)(C)C1CCC2(CC1)NC(=O)N(CC(=O)Nc1cc(C(F)(F)F)ccc1N1CCOCC1)C2=O (stereo not drawn) | 3 | nt | nt | nt | -0.2
N/C(=N\OC(=O)c1ccc2c(c1)OCO2)c1ccc([N+](=O)[O-])cc1 | -2 | 0% | -5 | nt | -3.3
CCC(=O)NCc1c(Cl)cccc1-n1cccc1 | -9 | 5% | 1 | -28 | -6.4
Cc1ccc(NC2Sc3ccccc3NC2=O)cc1Cl (stereo not drawn) | 93 | nt | nt | nt | -0.4
Cc1ccc(-n2nc3c(c2NC(=O)c2ccc4c(c2)OCO4)CSC3)c(C)c1 | nt | -1% | -1 | -32 | 0.0
O=C1CC(=O)N(c2ccc(Cl)cc2Cl)C(=O)N1 | -2 | -2% | 3 | -4 | 3.3 | Arbovirus inh repeat=3
COc1ccc(-c2cnc[nH]2)cc1 | -4 | 0% | 13 | nt | -2.1
Cc1ccc(NC(=O)CCNC(=O)c2ccc(Br)cc2)cc1S(=O)(=O)N1CCCCCC1 | -13 | nt | nt | nt | 0.9
O=C(OCC(=O)N1CCN(C(=O)c2ccco2)CC1)c1cc(-c2ccc(F)cc2)nc2ccccc12 | 94 | 7% | 1 | -26 | nt
CC(C)C(NC(=O)c1ccc(Cl)cc1)C(=O)NC1=NCCS1 (stereo not drawn) | 9 | -7% | 1 | -10 | -0.5
COC(=O)[C@@]12CCCCN1[C@H](c1ccc(-c3ccc(C(C)=O)cc3)cc1)[C@H]1C(=O)N(C)C(=O)[C@H]12 | -1 | nt | nt | nt | -3.3
CN(C)C(=O)c1ccccc1Sc1ccc(Cl)cc1Cl | 5 | 2% | -1 | -3 | -1.0
O=C(O)c1ccccc1NSc1ccccc1[N+](=O)[O-] | 6 | 1% | 16 | nt | -1.1
CCC(C)C(NC(=O)C(N)CC(C)C)C(=O)NC(CCC(=O)OCc1ccccc1)C(N)=O (stereo not drawn) | 15 | -8% | 3 | -15 | 0.1
Cc1ccc(N2CCN(C(=O)c3nn(C)c4c3CS(=O)(=O)c3ccccc3-4)CC2)c(C)c1 | 39 | nt | nt | nt | -2.8
COc1ccc(NC(=O)COC(=O)CCCC2=NS(=O)(=O)c3ccccc3N2)cc1Cl | 2 | nt | nt | nt | 0.1
Cc1nnc(NCCc2ccccc2)n(N)c1=O | -5 | -1% | 3 | 9 | -0.9
COc1ccccc1OC(=O)c1ccc2nsnc2c1 | 46 | 4% | 8 | -34 | -0.7
S=c1nc(C2CC2)n(-c2ccccc2)[nH]1 | -3 | 7% | nt | nt | 2.3
Cn1c(CN2CCCCC2)nc2cc(NC(=O)c3ccc(Cl)cc3)ccc21 | 44 | 2% | -21 | -13 | nt
CCOC(=O)c1c(C)[nH]c(C)c1C(=O)CSc1nc(N)cc(N)n1 | -5 | nt | -4 | -27 | -6.2
CCOC(=O)C1(Cc2cccc(F)c2)CCN(Cc2ccon2)CC1 | 1 | 6% | 3 | nt | 1.9
COc1ccc(OC)c(C(O)C2CCCCN2)c1 (stereo not drawn) | -9 | nt | nt | nt | -2.3
COc1cccc(NC(=S)NNC(=O)c2c([N+](=O)[O-])c(C)nn2C)c1 | 3 | 2% | 0 | -43 | -0.5
Cc1cc(C(=O)NCC(c2ccco2)N(C)C)ccc1[N+](=O)[O-] (stereo not drawn) | -3 | nt | nt | nt | -1.8
O=C(CSc1ncnc2sc3c(c12)CCC3)Nc1ccccc1C(=O)O | 7 | -3% | nt | nt | 2.0
CCN(CC(=O)Nc1c(F)cccc1F)C(=O)c1ccc(Cl)c(S(=O)(=O)N2CCCC2)c1 | -7 | nt | nt | nt | -7.7
Cc1c(N/C=C/C(=O)c2cccs2)c(=O)n(-c2ccccc2)n1C | 1 | 3% | 6 | -33 | -1.8
Cc1ccc(C)c(N2CCN(S(=O)(=O)c3c(C)noc3C)CC2)c1 | 2 | nt | nt | nt | 0.7
COc1ccc(NC(=O)CCCCCn2nnc3ccccc3c2=O)cc1 | 41 | nt | nt | nt | -2.6
CCOC(=O)c1ccc(Nc2nc(C)cc(C)n2)cc1 | 2 | nt | nt | nt | -9.3
CC1=NN(C(N)=S)C(=O)C1N=Nc1cccc([N+](=O)[O-])c1 (stereo not drawn) | 6 | nt | nt | nt | 29
CC(C)N1CCc2c(sc(NC(=O)c3ccc(S(=O)(=O)N4CCOCC4)cc3)c2C#N)C1 | 3 | 3% | 2 | -25 | 3.5 | Arbovirus inh repeat=-7
Cc1cc2occ(CC(=O)N(C)CC(=O)Nc3cccc(F)c3)c2cc1C | -6 | nt | nt | nt | -0.5
CCN(CC)C(=O)Cn1cnc2ccccc2c1=O | -9 | -9% | -4 | 32 | 3.2
CCCNC(=O)CC1C(=O)N(Cc2ccccc2)C(C)c2nc3ccccc3n21 (stereo not drawn) | 1 | -5% | 19 | -4 | 0.1
O=C(C1CCN(C2CC(=O)N(Cc3ccccc3)C2=O)CC1)N1CCCCCC1 (stereo not drawn) | 12 | -9% | 14 | -5 | 1.4
Cc1ccc(C(=O)Nc2ccc(N3CCN(C(=O)c4cccs4)CC3)cc2)c(Cl)c1 | 85 | nt | nt | nt | -3.1
O=C(NC(=O)c1ccc(Cl)cc1)Nc1cc(N2CCCCC2)ncn1 | 0 | nt | nt | -7 | nt
COc1ccc(NC(=O)CSc2nnc(Cn3cnc([N+](=O)[O-])n3)n2C)cc1 | -6 | 2% | -4 | -20 | -7.3
COCCNC(=S)NC1CC2CCC(C1)N2Cc1ccccc1 (stereo not drawn) | -4 | 7% | -4 | nt | -0.2
CC(=O)N(Cc1cc2c(C)cc(C)cc2[nH]c1=O)C1CCCCC1 | -12 | 6% | -13 | 6 | 1.4
O=C(Nc1nc(-c2ccccc2)ns1)c1cccs1 | 1 | 6% | 30* | -50 | -2.4
CCOC(=O)C1=C(C)N(CCCC(=O)O)C(=O)NC1c1ccccc1Cl (stereo not drawn) | 0 | -6% | nt | nt | -1.0
O=[N+]([O-])c1ccc(-c2nnc3cccc(Cl)n23)cc1 | 3 | nt | nt | nt | -0.6
COC(=O)C(NC(=O)C(C)Oc1ccccc1)C(C)C (stereo not drawn) | 1 | -5% | 5 | -37 | 0.2
COC(=O)Oc1c(Br)c(=O)oc2ccccc12 | -9 | -4% | -2 | -21 | 4.9
Cc1ccc(O)c(NC(=O)c2ccco2)c1 | 3 | 20% | 10 | -16 | -1.2
CCN1CCN(C(=O)c2cc3c(=O)n4ccccc4nc3s2)CC1 | 2 | nt | nt | nt | -82
Cn1c(SCC(=O)NCC2CCCO2)nc2c(c1=O)SCC2 (stereo not drawn) | -6 | nt | nt | nt | -1.2
C(=N\Nc1nc(-c2cccnc2)nc2ccccc12)/c1ccccc1 | -2 | 5% | nt | nt | -6.5

Sorted by length of the SMILES (lowest first): some entries from above.
SMILES | Mtb bLac sens | Mtb growth | Arbovirus inh | YopH PTP inh | RecA intein inh | others
COC(=O)C(NC(=O)C(C)Oc1ccccc1)C(C)C (stereo not drawn) | 1 | -5% | 5 | -37 | 0.2
CCN1CCN(C(=O)c2cc3c(=O)n4ccccc4nc3s2)CC1 | 2 | nt | nt | nt | -82
O=C(C1CCN(C2CC(=O)N(Cc3ccccc3)C2=O)CC1)N1CCCCCC1 (stereo not drawn) | 12 | -9% | 14 | -5 | 1.4

Next part
SMILES | Mtb bLac sens | Mtb growth | Arbovirus inh | YopH PTP inh | RecA intein inh | others
CSc1ccc(CNCc2ccc3c(c2)OCO3)cc1 | 3 | nt | nt | nt | 0.3
CC/C(=N/NC(=O)c1ccc(Br)cc1)c1ccc(OCCN2CCOCC2)cc1 | 4 | 2% | -7 | -14 | 0.4
Nc1cccc(NC(=O)c2cccs2)c1 | 10 | 4% | -2 | -7 | 0.9
COc1ccccc1CNC(=O)CN(C)CC(=O)Nc1cccc(F)c1 | 1 | 0% | -1 | -36 | 0.0
COc1cccc(N2C(=NC(=O)c3ccccc3)SC3CS(=O)(=O)CC32)c1 (stereo not drawn) | -1 | nt | nt | nt | -4.0
N#C/C(=C1\CCCN1)c1nc(-c2ccccc2)cs1 | 11 | 16% | -6 | -6 | -4.2
O=C(NC(=S)NC1CCS(=O)(=O)C1)c1ccccc1 (stereo not drawn) | -11 | nt | nt | nt | -4.7
O=C(OC(C(=O)Nc1ccc(Cl)c(C(F)(F)F)c1)c1ccccc1)C1=COCCO1 (stereo not drawn) | 47 | 48% | -21 | -21 | 9.8
Cc1ccc(C(=O)NCC(=O)OCC(=O)Nc2ccccc2[N+](=O)[O-])cc1 | 2 | 4% | -4 | -21 | 0.2
CCc1nc2cccnc2n1-c1ccc(CC(=O)O)cc1 | 0 | nt | nt | nt | -1.3
CC(=O)NCCOc1cccc2ccccc12 | -13 | 6% | -3 | -28 | 1.5
COc1ccc(C2=NN(C(=O)c3cccc([N+](=O)[O-])c3)C(c3cccc([N+](=O)[O-])c3)C2)cc1 (stereo not drawn) | 10 | 26% | -4 | 2 | 2.7
CCOC(=O)C(NC(C)=O)C(OC(C)=O)c1cccc(N(CCCl)CCCl)c1 (stereo not drawn) | -2 | 0% | -16 | -17 | -1.5
CCn1c(SCC(=O)NCC2CCCO2)nnc1-c1ccc(S(=O)(=O)N2CCN(C)CC2)cc1 (stereo not drawn) | 4 | -1% | 4 | nt | -11
CN1C(=O)CC(C(=O)O)SC1=Nc1ccc(F)cc1 (stereo not drawn) | 5 | -1% | 0 | 10 | 0.4
CN(C)Cc1nnnn1-c1ccccc1 | 1 | -2% | nt | nt | -0.2

This is a subset (hit frequency here may not be typical).
